# RanGTP-Impb inh = inhibitors of RanGTP-importin-beta interaction, primary screen, biochemical, FRET, CFP-Ran, YFP-importin-beta, homogeneous | 300,000 tested, 1.1% active | inhibition, % (test concentration not listed) | cell-free CFP-Ran/YFP-importin-beta FRET ratio;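 active means most replicates above 15%; inconclusive means exactly half above 15%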;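 further: 0% = DMSO wells and 100% = Ran loaded with GDP instead of GTP; wells of about 40 µL received 100 nL stock; the first replicate is given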
# Calb FLC = affects C. albicans growth with fluconazole | C. albicans CaCi-2 (fluconazole-resistant clinical isolate) + fluconazole, Alamar Blue growth, 48 h | growth inhibition, % (no concentration beside the values) | 300,000 tested, 0.57% active;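 active means most replicates above 75%; inconclusive means exactly half above 75%; inactive means most below 75%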;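 further: all wells also contain fluconazole at 8 µg/ml as a sub-toxic cotreatment; 0% = median of DMSO wells and 100% = median of geldanamycin control wells; wells of about 8 µL received 7.5 nL stock; the first replicate is given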
# T cruzi inh = blocks replication of Trypanosoma cruzi; T. cruzi beta-gal in NIH3T3, luminescence, 90 h; inhibition, % (no concentration beside the values); 300,000 tested, 1.4% active; AID 1885;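 active means mean inhibition across valid replicates above about 55%, limit read from the data; inconclusive means mean below that limit but half or more replicates reach it; inactive means mean below it, under half of replicates reach it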;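 further: signal also drops with host cell toxicity which is not excluded here; 0% = plate median of DMSO wells and 100% = zero luminescence signal; higher percent means less beta-gal luminescence so fewer parasites; stock transfer was 50 nL into about 50 µL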
# LANA-H2B inh = blocks KSHV LANA binding to histone H2A/H2B | Q9QR71 | cell-free LANA-H2A/H2B peptide, fluorescence polarization | inhibition, % (no concentration beside the values) | 320,000 tested, 0.6% active | AID 2629; in the data active means inhibition mostly above about 10%, no sharp cut-off; inactive means mostly below about 6.7%;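 further: stock transfer was 7.5 nL into about 10 µL; 0% = median of vehicle wells and 100% = median of positive control wells; one replicate is shown; the record names a cut of 25% in any replicate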
# UCH37 inh = blocks the human deubiquitinase UCH37. Q9Y5K5. purified proteasome/UCH37, Ub-AMC cleavage fluorescence. inhibition, % (concentration not given with the values). 330,000 tested, 0.33% active. AID 588478;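 active means mean of two replicates above 20%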;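 further: 0% = compound-free wells with enzyme and 100% = wells lacking proteasome; stock transfer was 100 nL into about 20 µL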
#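 Reagent: Ub-AMC substrate; assay system: Proteasome-associated human UCH37 deubiquitinase; controls: no-proteasome and no-compound wells; read-out: % inhibition of Ub-AMC cleavage fluorescence; timing: 30 min preincubation with enzyme, 25 min cleavage at room temperature; signal: AMC fluorescence from Ub-AMC cleavage, excitation 355 nm, emission 460 nm; buffer or medium: Tris-HCl pH 7.4 plus ovalbumin, ATP-MgCl2, DTT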
# A1 inh = inhibitors of the anti-apoptotic protein A1, read as caspase activation; MEF A1-2A-BIM cells, Caspase-Glo 3/7 luminescence, 3 h; percent of clofoctol response, vehicle zero; caspase activation, % (no concentration beside the values); 330,000 tested, 0.066% active;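 active means over half of replicate activation scores above 10%, or exactly half above 10 with the replicate mean above 10; inconclusive means replicate mean below 10 yet half the replicates above 10; inactive means over half of replicates below 10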;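 further: wells of about 30 µL received 50 nL stock; many hits fall short of the cut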
# B2AR ag = human beta-2 adrenergic receptor agonism by FAP | P07550 | Am2.2-beta2AR cells, FAP receptor internalization, flow cytometry; reference of the scale not given here | response, % (concentration not given with the values) | 340,000 tested, 0.43% active | AID 504454;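 active means response above a set limit, near 3 SD of response in nonfluorescent compounds, cut at about 42% in these data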;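 further: stock transfer was 100 nL into about 11 µL; a reference agonist was the positive control; negative values mostly stem from fluorescent compounds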
# Beta cell apopt = blocks beta cell apoptosis; protection from apoptosis, % (concentration not given with the values); INS-1E cytokine-induced death, ATP luminescence, 48 h; percent of positive-control rescue, neutral wells zero; 300,000 tested, 0.8% active;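 active means all replicates at 75% or more, or half of them and the mean; inconclusive means half reach 75% but not the mean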;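 further: 0% = cytokine-treated negative control wells and 100% = positive control rescue; higher means more ATP so stronger rescue from cytokine killing; wells of about 40 µL received 100 nL stock; the first replicate is given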
# * marks the source's active call; other numbers are inactive results; ? = inconclusive; nt = not tested or not shown.
SMILES,RanGTP-Impb inh,Calb FLC,T cruzi inh,LANA-H2B inh,UCH37 inh,A1 inh,B2AR ag,Beta cell apopt
CCN1C(=O)CSc2ccc(C(=O)NC3CCCCC3)cc21,2.7,-7,12,-2.7,3.4,0.3,-3,3
Cc1cc(=O)[nH]c(SCC(=O)NCc2ccco2)n1,-1.4,-7,-11,1.3,4.6,0.9,5,-3
CCn1c(SCC(=O)OC)nc2sc3c(c2c1=O)CCC3,-1.8,11,3,1.6,2.4,0.2,-8,-3
Cc1ccc(-n2nc(C)c(/C=N/NC(=O)c3cccs3)c2Cl)cc1,3.3,17,-25,nt,nt,0.6,-10,11
COc1ccc(-c2cn(CCO)c(-c3ccncc3)n2)cc1,nt,nt,nt,0.4,0.8,-1.7,2,1
COc1cccc(C(=O)NC(C)c2ccc(-c3ccccc3)cc2)c1OC (configuration not stated),3.2,-1,3,2.5,nt,0.7,-2,1
CCOc1ccc(C(CC(=O)O)NC(=O)COc2ccccc2)cc1 (configuration not stated),-2.7,1,-5,7.2,-0.3,0.1,3,-9
N#Cc1cccc(NC(=O)COC(=O)c2ccccc2C(=O)c2ccc(Cl)c([N+](=O)[O-])c2)c1,-1.5,-19,-35,-2.1,1.3,2.2,46*,-18
CCOC(=O)c1sc(NC(=O)C2C3C=CC(C3)C2C(=O)O)nc1C (configuration not stated),?,-2,-9,1.8,0.0,1.7,0,2
COc1ccc(CN2CN(S(=O)(=O)c3cccs3)c3nc4ccccc4nc32)cc1,6.4,12,24,5.5,-0.6,-4.3,-18,6
COC(=O)c1sc2cc(C(F)(F)F)cnc2c1-c1ccccc1,0.6,-7,0,2.5,2.8,-0.5,9,-10
CNC(=O)c1c(Br)cnn1-c1ccc(C)cc1,5.6,37,-45,0.8,-0.5,-4.0,2,-3
Cc1cc(S(=O)(=O)N2CCN(c3ccccc3O)CC2)c(C)s1,2.5,24,-7,-1.7,3.8,-0.7,6,-5
Cc1ccc(Cn2c(=N)n(CC(O)c3ccco3)c3ccccc32)cc1 (configuration not stated),0.6,-4,8,-4.8,3.8,1.5,4,6
CCNC(=O)c1c(O)c2ccccc2[nH]c1=O,96*,11,-2,2.6,-214,0.7,-10,-14
COc1cccc(N2CCN(C(=S)Nc3ccccc3)CC2)c1,3.9,13,-16,-4.8,-0.5,-0.3,4,-3
O=C1CC2(CCN(C(=O)c3cccc([N+](=O)[O-])c3)CC2)Oc2ccccc21,0.8,-5,-5,nt,-12,0.3,2,3
CC(C)OCCCNC(=O)c1cccc2c1C(=O)c1ccc(Cl)cc1S2(=O)=O,nt,nt,nt,-4.5,4.7,-1.1,-1,1
O=C(NCCN1CCOCC1)c1ccc(CS(=O)(=O)c2c(Cl)cccc2Cl)o1,nt,nt,nt,2.8,1.5,2.8,2,-2
O=C(CSc1nc(C2CCCCC2)nc2ccccc12)N1CCCC1,-2.4,-10,16,-4.0,nt,0.4,1,-7
Cn1c(COc2ccccc2)nnc1SCCN1CCOCC1,0.7,-9,1,-5.0,4.3,1.0,1,2
CCC(C)Nc1nc(N)c([N+](=O)[O-])c(NCc2ccccc2)n1 (configuration not stated),3.7,9,-4,2.3,4.2,0.1,32,-4
Cc1ccc(N2C(=O)[C@@H]3[C@H](C2=O)[C@H]2C=CC=NN2[C@@H]3C(=O)Nc2ccc(Cl)cc2)cc1,-1.1,-13,-15,4.8,2.8,-0.8,7,-5
CCCCn1c(N)c(N(CC(C)C)C(=O)CSCc2cccc(C)c2)c(=O)[nH]c1=O,5.6,5,12,1.5,0.8,-0.1,-3,nt
CCOc1cc(CNCCO)ccc1OCC(=O)NC(C)(C)C,2.9,-11,-5,2.5,3.2,0.8,-7,nt

# Continued:
SMILES,RanGTP-Impb inh,Calb FLC,T cruzi inh,LANA-H2B inh,UCH37 inh,A1 inh,B2AR ag,Beta cell apopt
COc1ccc2cc(C(c3nnnn3C3CCCC3)N3CCOCC3)c3nnnn3c2c1 (configuration not stated),-3.4,-8,17,-4.8,3.3,-0.3,-7,1
CCCCCOc1ccccc1C(=O)NCCCCCC(=O)O,-2.4,-1,1,-4.1,4.1,0.9,-1,-4
Cc1ccc(NS(=O)(=O)c2ccc(C)c(NC(=S)NCCN3CCOCC3)c2)c(C)c1,nt,nt,nt,17,3.3,-0.2,2,-7
COc1ccc(CNC(=O)c2cc(-c3ccccc3OC)on2)cc1,9.2,-21,4,-5.2,0.4,1.9,-13,-7
Cn1c(/C(C#N)=C/Nc2ccccn2)nc2ccccc21,5.3,-61,-1,-3.0,nt,0.9,-16,-1
CC(C)c1ccc(-c2c(C#N)c(N)nc(SCC(=O)N3CCCCCC3)c2C#N)cc1,-4.0,-10,21,-0.3,-38,0.2,nt,0
CCCCc1nc2ccc(S(=O)(=O)O)cc2[nH]1,-2.7,-17,-3,-1.9,-1.2,-0.8,-6,2
Cc1ccc(-c2nc(C#N)c(N3CCC(C)CC3)o2)cc1,-2.8,4,9,2.1,-88,0.0,-7,-2
COCCN(C(=O)CNC(=O)c1ccco1)C(C(=O)NC1CCCC1)c1ccccc1F (configuration not stated),-0.6,-14,5,3.9,-0.9,0.2,-12,0
CN(C(=O)Cn1nc(C(=O)O)c2ccccc2c1=O)C1(C#N)CCCCC1,nt,nt,nt,-4.9,1.7,0.2,-3,1
C/C(=N\O)c1noc(C)c1C(=O)Nc1nccs1,3.2,-1,-3,5.6,nt,1.0,20,-1
CC1CCCC(C)N1/N=C/C=C/c1ccccc1[N+](=O)[O-] (configuration not stated),3.1,-6,-11,-2.0,nt,-0.4,-9,2
Fc1cc(F)c2nc(N3CCCCC3)sc2c1,2.1,25,-16,1.4,0.5,-6.4,0,2
c1nc2sc3c(c2c2nnnn12)CCC3,-2.7,-5,-8,-4.1,-64,0.6,-3,-9
COc1cc(OC)c(C#N)c(S(=O)Cc2ccccc2)c1 (configuration not stated),2.0,1,-4,3.8,1.2,1.0,0,2
COC(=O)c1sc(NC(=O)C(C)c2ccccc2)nc1C (configuration not stated),-0.1,7,5,1.7,0.0,0.9,6,8
CCCc1nc(SCC(=O)Nc2nnc(CC)s2)c2c(C)c(C)sc2n1,-3.6,-14,3,5.1,1.1,0.2,-12,6
Cc1nnc(NC(=O)CCC(=O)NC2CCCCCCC2)s1,1.0,-20,-7,-1.1,-0.1,0.7,0,-5
O=C(C1CCCN(Cc2cccnc2)C1)N1CCCCC1 (configuration not stated),6.3,-4,3,-4.4,1.6,1.1,-1,-4
C#CCOCCOCCOCCNc1nc(N2CCN(C(=O)C(Cc3cc4ccccc4[nH]3)n3cc(C(N)C(C)CC)nn3)CC2)nc(N2CCN(C(=O)C(Cc3cc4ccccc4[nH]3)n3cc(C(N)C(C)CC)nn3)CC2)n1 (configuration not stated),1.9,21,10,-0.5,4.4,2.2,28,-10
CS(=O)(=O)c1ccc2nc(NC(=O)Oc3ccccc3)sc2c1,-0.9,-13,0,1.4,2.1,0.9,-10,-9
O=C1Nc2ccccc2N(O)N1c1ccc(Cl)cc1,6.8,?,-4,1.4,3.9,0.0,-8,-5
COc1cccc(NC(=O)Cn2c3ccc(F)cc3c3nc4n(c(=O)c32)CCS4)c1,2.7,0,27,-0.6,-59,-2.0,-10,5
COc1ccc2c(c1)CC/C2=N\OC(=O)c1ccccc1C,5.8,5,1,1.0,nt,-8.1,6,nt
COc1ccc(C(=O)Oc2cc(C)[nH]c(=O)c2[N+](=O)[O-])cc1,-3.2,-1,-7,-1.7,4.9,1.1,-1,nt

# (listing goes on)
SMILES,RanGTP-Impb inh,Calb FLC,T cruzi inh,LANA-H2B inh,UCH37 inh,A1 inh,B2AR ag,Beta cell apopt
N#CC(C#N)=C1C=CC=CN1/C(=C\c1ccco1)C(=O)c1ccccc1,nt,nt,nt,1.5,-12,0.3,60*,?
O=C(COC(=O)CNC(=O)c1ccc(Cl)cc1Cl)NCc1ccco1,-0.7,-1,1,-2.0,4.2,1.5,2,0
COc1ccc(-c2nc(CS(=O)(=O)CC(=O)NCCc3cc(OC)ccc3OC)c(C)o2)cc1,3.8,-8,38,-2.0,2.4,0.9,-3,4
Cc1cc(C)nc(SCc2ccc(C(=O)NNC(=O)Nc3cccc(Cl)c3)cc2)n1,3.6,4,-7,-2.5,2.3,0.9,1,-4
COC(=O)N=Nc1c(O)[nH]c2ccc(Br)cc12,-0.4,1,8,0.8,5.6,0.0,-13,-6
COc1ccc(/C=N/NC(=O)c2cccc(C(F)(F)F)c2)cc1,-0.3,7,-2,-2.7,nt,-0.6,4,-10
Cn1cc(S(=O)(=O)N2CCCC2)cc1C(=O)N1CCN(c2ccccc2)CC1,-0.3,2,-2,-3.1,3.8,1.1,-5,-6
COc1ccc(NC(=O)C2CCCN(S(C)(=O)=O)C2)cc1 (configuration not stated),4.8,0,-11,5.2,1.6,-0.2,-5,-5
C=CCn1c(SCC(=O)N2c3ccccc3Sc3ccccc32)nnc1-c1ccco1,0.0,-3,24,23*,0.8,0.4,-4,0

# High-throughput results as filed in PubChem.
